Bioassay records as filed in PubChem BioAssay.
BJeLR viability = compounds reducing viability of BJeLR cells | 0.64% of 30,000 active | AID 2275 | viability loss activity score, % (no concentration beside the values) | BJeLR fibroblasts viability, CellTiterGlo ATP luminescence, 48 h; HRASV12, hTERT and SV40 LT/ST transformed; in the data active means viability loss activity score above about 50%; about a fifth of its hits are not listed in these tables;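 further: higher score means fewer live cells and less ATP luminescence; stock transfer was 50 or 100 nL into about 30 µL; 0% = vehicle wells and 100% = a reference killing control; one replicate is shown; the record names a cut of 85%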
A1 inh = A1 inhibition | 0.51% of 21,000 active | caspase activation, % (no concentration beside the values) | MEF A1-2A-BIM cells, caspase-Glo luminescence, 3 h; percent of clofoctol signal, DMSO as zero;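 active means most replicate scores above 10, or exactly half above 10 with mean activity above 10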;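 further: effector caspase 3 and 7 activity cleaving a DEVD luciferin substrate; 50 nL library stock added to about 30 µL; numbers are from one replicate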
Starred values were filed as active, the others as inactive; · = no result given. Some of the compounds tested (hit frequency here may not be typical).

SMILES	BJeLR viability	A1 inh
Cc1ccc(S(=O)(=O)N(C)C[C@@H]2Oc3c(NC(=O)C4CC4)cccc3C(=O)N([C@H](C)CO)C[C@H]2C)cc1	-6.4	·
C[C@H](CO)N1C[C@H](C)[C@@H](CN(C)Cc2ccc(Oc3ccccc3)cc2)Oc2c(NS(=O)(=O)c3cn(C)cn3)cccc2C1=O	-1.3	·
Cc1cc(NS(=O)(=O)c2ccc(NCN3C(=O)c4ccccc4C3=O)cc2)no1	3.2	·
O=C(N1CCOc2ccccc21)n1ccnc1	0.9	0.2
CCC(=O)Nc1cc2nc3[nH]c(=O)n(C4CCCCCC4)c(=O)c3nc2cc1C	2.6	·
C[C@H]1CN([C@@H](C)CO)C(=O)c2cccc(NC(=O)c3cnccn3)c2O[C@@H]1CN(C)C(=O)Nc1ccc(C(F)(F)F)cc1	-2.0	·
COc1ccc2c(c1)CCC1C2CCC2(C)C1C[C@@H](O)C2O (stereo partly specified)	7.7	0.3
O=C1CSc2cc(S(=O)(=O)N3CC=C(c4ccccc4)CC3)ccc2N1	-1.1	0.3
c1cncc(-c2nc3c4c5c(sc4ncn3n2)CCCC5)c1	5.7	-0.2
CCCCCN=C(N)N/N=C/c1c[nH]c2ccc(OC)cc12	6.3	0.0
C[C@H](CO)N1C[C@H](C)[C@@H](CN(C)Cc2ccc(C(F)(F)F)cc2)Oc2ccc(N(C)C)cc2C1=O	0.8	-0.6
C[C@H]1CN([C@@H](C)CO)C(=O)c2cccc(NS(=O)(=O)c3cn(C)cn3)c2O[C@@H]1CN(C)Cc1ccc(Oc2ccccc2)cc1	-3.9	·

The closing 3 entries of the part before are carried over, then new ones follow.
SMILES	BJeLR viability	A1 inh
CCCCCN=C(N)N/N=C/c1c[nH]c2ccc(OC)cc12	6.3	0.0
C[C@H](CO)N1C[C@H](C)[C@@H](CN(C)Cc2ccc(C(F)(F)F)cc2)Oc2ccc(N(C)C)cc2C1=O	0.8	-0.6
C[C@H]1CN([C@@H](C)CO)C(=O)c2cccc(NS(=O)(=O)c3cn(C)cn3)c2O[C@@H]1CN(C)Cc1ccc(Oc2ccccc2)cc1	-3.9	·
C[C@@H]1CN([C@@H](C)CO)C(=O)c2cc(NC(=O)C3CCCCC3)ccc2O[C@@H]1CN(C)S(=O)(=O)c1ccc(F)cc1	2.3	-0.5
Cc1cccc(C(=O)O)c1O	-6.7	0.3
Cc1ccc(S(=O)(=O)N(C)C[C@@H]2Oc3c(NC(=O)Nc4ccc(C(F)(F)F)cc4)cccc3C(=O)N([C@@H](C)CO)C[C@@H]2C)cc1	-0.1	·
C[C@@H]1CN([C@H](C)CO)C(=O)c2cc(NS(C)(=O)=O)ccc2O[C@H]1CN(C)CC1CCCCC1	-1.0	0.3
COc1ccc(S(=O)(=O)N(C)C[C@H]2Oc3c(NC(=O)Nc4ccc(C(F)(F)F)cc4)cccc3C(=O)N([C@@H](C)CO)C[C@@H]2C)cc1	-2.7	·
C[C@H]1CN([C@@H](C)CO)C(=O)c2cc(NS(=O)(=O)c3cn(C)cn3)ccc2O[C@@H]1CN(C)C(=O)Nc1ccc(C(F)(F)F)cc1	-0.5	0.7
COc1ccccc1N1CCN(S(=O)(=O)c2ccc3c4c(cccc24)C(=O)N3)CC1	2.6	0.1
Cc1cc(=O)oc2cc(NC(=O)CC(CC(=O)O)c3ccccc3)ccc12 (stereo unspecified)	-1.1	0.1
C[C@H](CO)N1C[C@H](C)[C@@H](CN(C)Cc2ccccc2)Oc2c(NS(=O)(=O)c3ccc(F)cc3)cccc2C1=O	-6.2	·
C[C@H]1CN([C@@H](C)CO)C(=O)c2cc(NC(=O)CCC(F)(F)F)ccc2O[C@@H]1CN(C)Cc1ccc(-c2ccccc2)cc1	0.7	0.4
C[C@H]1CN([C@@H](C)CO)C(=O)c2cc(NC(=O)Nc3ccccc3)ccc2O[C@H]1CN(C)Cc1ccc(C(=O)O)cc1	-0.7	0.5
COc1ccc(Cl)cc1C(=O)Nc1ccc2nc3n(c(=O)c2c1)CCCC3	6.5	-1.0
CC1(C)Cc2cccc(C(=O)Nc3cccc4c3CCCC4)c2O1	-11.0	-1.0
O=C(Cc1ccccc1)Nc1cccc(C(=O)OCC(=O)c2ccc(Cl)cc2)c1	-0.6	-3.8
C[C@@H]1CN([C@H](C)CO)C(=O)c2cccc(NC(=O)c3cnccn3)c2O[C@@H]1CN(C)S(=O)(=O)c1ccc(F)cc1	-1.3	·
CCOC(=O)O[C@]1(C(=O)COC(=O)CC)CC[C@H]2[C@@H]3CCC4=CC(=O)C=C[C@]4(C)[C@H]3[C@@H](O)C[C@@]21C	-6.9	0.2
CCOC(=O)c1ccc(CNC(=O)c2ccc(S(=O)(=O)c3ccccc3)cc2)o1	4.4	-1.4
C=C[C@]1(C)C[C@H](O)[C@H]2C(=C)C(=O)O[C@@H]2[C@H]1C(=C)CO	3.3	-0.3
FC(F)(F)c1cccc(NC(=S)NCCNc2nccc(C(F)(F)F)n2)c1	-2.3	·
CCc1cccc(CC)c1NC(=S)Nc1ccc(C)cc1	-2.6	0.1
CCOC(=O)Cn1c2c(c(-c3ccccc3OC)cc1=O)CCCC2	2.4	-0.3
COc1ccc(C(=O)Oc2ccc(C)c3c2C(=O)OC(C)C3)c2c1C(=O)OC(C)C2 (stereo unspecified)	-3.6	-0.3
COC1=CC(=O)C[C@@H](C)[C@]12Oc1cc(OC)cc(OC)c1C2=O	-3.8	4.6
Cc1cnnc(/N=C(\N)Nc2ccc(S(=O)(=O)Nc3nc(C)ccc3C)cc2)n1	-1.7	-0.5

A few values from the results shown:
Result for CCc1cccc(CC)c1NC(=S)Nc1ccc(C)cc1 in BJeLR viability: -2.6
Result for COc1ccc(C(=O)Oc2ccc(C)c3c2C(=O)OC(C)C3)c2c1C(=O)OC(C)C2 (stereo unspecified) in A1 inh: -0.3

Going on with the list.
SMILES	BJeLR viability	A1 inh
Cc1noc(C)c1S(=O)(=O)Nc1ccc2c(c1)C(=O)N([C@H](C)CO)C[C@@H](C)[C@H](CN(C)C(=O)NC(C)C)O2	1.5	0.1
C[C@@H]1O[C@@H](O[C@@H]2[C@@H](O)[C@H](Oc3cc(O)c4c(c3)OC(c3ccc(O)cc3)CC4=O)O[C@H](COC3OCC(O)C(O)C3O)[C@H]2O)[C@H](O)[C@H](O)[C@H]1O (stereo partly specified)	3.8	-0.1
CC(=O)Nc1ccc(NC(=O)/C=C/c2ccccc2)cc1	-6.4	-1.1
CCOC(=O)N1CCC(NC(=O)C(Cc2ccccc2)NC(=O)c2ccco2)CC1 (stereo unspecified)	6.4	0.6
O=C(COc1ccc(Cl)cc1)NCCC12CC3CC(CC(C3)C1)C2	6.0	0.2
C[C@@H]1CN([C@H](C)CO)C(=O)c2cccc(NS(C)(=O)=O)c2O[C@@H]1CN(C)S(=O)(=O)c1cn(C)cn1	-1.4	·
Nc1nnc(SCC(=O)N2c3ccccc3Sc3ccc(C(F)(F)F)cc32)s1	2.0	1.8
c1ccc(-c2nsc(N3CCOCC3)n2)cc1	3.4	-4.8
CC(=O)Nc1ccc(N2C(=O)CSC2c2ccccc2)cc1 (stereo unspecified)	5.2	0.1
O=C1CC(c2ccccc2)CC(O)=C1C=NCCN1CCOCC1 (stereo unspecified)	0.2	0.1
CCc1ccc(NC(=O)Cn2c(=O)n(CCc3ccccc3)c(=O)c3c4c(sc32)CCCC4)cc1	1.8	·
COc1ccc(-c2ccc(=O)n(CC(=O)N(C)c3ccccc3)n2)cc1	-2.5	0.3
C[C@H]1CN([C@@H](C)CO)C(=O)c2cccc(NS(=O)(=O)c3ccc(Cl)cc3)c2O[C@@H]1CN(C)C(=O)Nc1ccccc1	1.3	·
O=C1c2ccccc2C(=O)N1Cc1ccncc1	-2.5	-0.1
Cc1cc(N(C)Cc2ccccc2)nc2cc(O)ccc12	-6.0	·
Cc1c(C=Nc2ccc(C(C)C)cc2)sc2ccccc12	-3.7	-2.8
C[C@H](CO)N1C[C@H](C)[C@H](CN(C)Cc2ccc(C(=O)O)cc2)Oc2ccc(NC(=O)C3CCCCC3)cc2C1=O	-9.6	0.3
Cc1noc(C)c1S(=O)(=O)Nc1ccc2c(c1)C(=O)N([C@H](C)CO)C[C@@H](C)[C@H](CN(C)C(=O)Nc1ccc3c(c1)OCO3)O2	1.2	-0.5
CC(C)(C)Nc1ncnc2c1sc1nc3c(cc12)COC(C)(C)C3	-2.8	·
CNC(=O)c1cccc(NC(=S)NC)c1	-0.8	0.4
C[C@H]1CN([C@@H](C)CO)C(=O)c2cccc(NC(=O)NC3CCCCC3)c2O[C@@H]1CN(C)S(=O)(=O)c1ccc(F)cc1	10.3	·
Oc1ccc(-c2nc3cc4ccccc4cc3nc2-c2ccccc2)cc1	-16.8	-1.5
COc1ccc(C2C(C(=O)NCc3cccnc3)c3ccccc3C(=O)N2c2ccc(OC)cc2)cc1 (stereo unspecified)	13.0	·
C[C@H](CO)N1C[C@H](C)[C@H](CN(C)Cc2ccc3c(c2)OCO3)Oc2c(NC(=O)c3nc4ccccc4s3)cccc2C1=O	-0.2	·
Oc1cc(O)cc(/C=C/c2ccccc2)c1	1.7	-5.8
C=CCn1c(-c2ccc(OC)cc2)c(C)sc1=Nc1ccc(C)cc1	12.8	0.9
COc1ccc2nc(N(CCN(C)C)C(=O)c3cccs3)sc2c1	-2.4	0.9
Cc1c(S(=O)(=O)Nc2ccc(Cl)cc2)sc2ccc(Cl)cc12	-0.1	-0.2
C[C@@H]1CN([C@@H](C)CO)C(=O)c2cccc(NC(=O)c3ccncc3)c2O[C@H]1CN(C)S(C)(=O)=O	-4.6	·
CC(=O)O[C@@H]1c2c(C)coc2C(=O)[C@@]23O[C@@H]2CC[C@H](C)[C@@]13C	2.2	1.4
C[C@H](CO)N1C[C@H](C)[C@H](CN(C)S(C)(=O)=O)Oc2c(NC(=O)Nc3cccc4ccccc34)cccc2C1=O	4.6	·
C[C@H]1CN([C@@H](C)CO)C(=O)c2cccc(NC(=O)Nc3ccc4c(c3)OCO4)c2O[C@H]1CN(C)S(=O)(=O)c1ccccc1	-2.1	·
C[C@H]1CN([C@@H](C)CO)C(=O)c2cc(NC(=O)CCC(F)(F)F)ccc2O[C@@H]1CN(C)C(=O)NC1CCCCC1	-0.7	0.2
C[C@H]1CN([C@@H](C)CO)C(=O)c2cc(NS(C)(=O)=O)ccc2O[C@H]1CN(C)C(=O)NC1CCCCC1	-6.7	0.1
C=C(C)c1cccc(C(C)(C)NC(=O)Nc2ccccc2OC)c1	2.0	1.4
C[C@@H]1CN([C@@H](C)CO)C(=O)c2cc(NC(=O)Cn3cnnn3)ccc2O[C@H]1CN(C)Cc1ccc(C(F)(F)F)cc1	-2.3	-0.2

Entries listed so far with an NH in an aromatic ring:
SMILES	BJeLR viability	A1 inh
CCC(=O)Nc1cc2nc3[nH]c(=O)n(C4CCCCCC4)c(=O)c3nc2cc1C	2.6	·
CCCCCN=C(N)N/N=C/c1c[nH]c2ccc(OC)cc12	6.3	0.0

(next part)
SMILES	BJeLR viability	A1 inh
O=C(O)CCC(=O)Nc1nc2n(n1)C(c1ccccc1)CC(=O)N2 (stereo unspecified)	11.3	0.8
CCC(Sc1ccc2nnc(-c3ccccc3)n2n1)C(=O)OC (stereo unspecified)	1.6	-0.3
O=C(NCCCc1nc2ccccc2n1CCCOc1ccccc1)c1ccco1	0.5	-0.3
CCOC(=O)C(C)Sc1nnc(CNC(=O)C23CC4CC(CC(C4)C2)C3)n1-c1ccccc1 (stereo unspecified)	-1.1	·
CCCNC(=O)c1ccc2c(c1)N(Cc1ccccc1)C(=O)c1ccccc1S2	-3.5	1.3
COc1ccc(CNCc2cccc(OC)c2)cc1	1.5	-0.7
Oc1cc(C2CCCCC2)cc(C2CCCCC2)c1	3.5	46.0*
CCCCCCCC/C=C\CCCCCCCc1cccc(O)c1C(=O)O	-2.9	-0.8
C[C@H]1CN([C@@H](C)CO)C(=O)c2cc(NC(=O)CCCN(C)C)ccc2O[C@H]1CN(C)S(=O)(=O)c1cn(C)cn1	-1.4	0.4
CCCN1C2=NC3C=CC=CN3C(=O)C2=CC(C(=O)OCC)C1=NC(=O)C(CC)c1ccccc1 (stereo unspecified)	-2.0	·
COc1cc(O[C@@H]2O[C@H](CO)[C@@H](O)[C@H](O)[C@H]2O)cc(OC)c1OC	-2.2	-0.7
C[C@@H]1CN([C@@H](C)CO)C(=O)c2cccc(NC(=O)C3CC3)c2O[C@@H]1CN(C)C(=O)Nc1ccc(F)cc1	-10.9	·
CC(=O)N(c1nc(-c2cc3ccccc3oc2=O)cs1)c1cccc(C)c1C	5.6	-0.4
CC(C)(C)NC(=O)CSc1nc2ccccc2n1-c1ccccc1	-1.2	-0.7
CCN(CC)c1ccc(-c2cc(C(=O)O)c3c(ccc4ccccc43)n2)cc1	2.9	0.1
C[C@@H]1CN([C@H](C)CO)C(=O)c2cc(NC(=O)Nc3ccc(C(F)(F)F)cc3)ccc2O[C@H]1CN(C)C(=O)NC1CCCCC1	0.4	-0.1
CCOC(=O)Cn1c(=O)c(-c2nc(-c3ccccc3)cs2)cn(C(C)C)c1=O	0.4	-0.1
C[C@H]1CN([C@@H](C)CO)C(=O)c2cccc(NC(=O)C3CCOCC3)c2O[C@H]1CN(C)S(=O)(=O)c1ccc(F)cc1	-2.4	·
Cn1c(=O)oc2cc(S(=O)(=O)NCCCN3CCN(c4cccc(Cl)c4)CC3)ccc21	1.9	·
C[C@H]1CN([C@@H](C)CO)C(=O)c2cccc(NC(=O)NC3CCCCC3)c2O[C@H]1CN(C)Cc1ccc2c(c1)OCO2	4.6	·

Two records picked at random from the list so far, as already listed:
SMILES	BJeLR viability	A1 inh
CCOC(=O)Cn1c(=O)c(-c2nc(-c3ccccc3)cs2)cn(C(C)C)c1=O	0.4	-0.1
C[C@@H]1CN([C@H](C)CO)C(=O)c2cc(NC(=O)Nc3ccc(C(F)(F)F)cc3)ccc2O[C@H]1CN(C)C(=O)NC1CCCCC1	0.4	-0.1
